Screening results from PubChem BioAssay.
CDC25B-CDK2 inh – human CDC25B-CDK2/CyclinA binding inhibition | HTRF CDC25B-CDK2/CyclinA binding, anti-His/anti-Flag; stronger effect = higher value | z-score (test concentration not listed) | 94,000 compounds, 0.72% hits | AID 1259370;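 note: score is relative to mean and SD of negative controls; strong numbers were not always called active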
HIV TAR-Tat – HIV-1 TAR-Tat binding disruption; z-score (no concentration beside the values); HIV-1 TAR RNA, Tat peptide displacement FRET; stronger effect = higher value; 100,000 compounds, 0.6% hits;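 note: score is relative to mean and SD of negative controls; some compounds called inactive have numbers as strong as hits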
Active calls of the source: *; x = no result given.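 Rule for the calls: active = z-score from 3 up in half or more of its runs; inactive = the rest.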 Compounds as they come; 0.87% or so of the library scored in one or more.

SMILES	CDC25B-CDK2 inh	HIV TAR-Tat
CCOc1ccc(NS(=O)(=O)c2ccc3c(c2)NC(=O)C(C)CS3)cc1 (configuration not stated)	x	1.1
CCc1ccc(NS(=O)(=O)c2ccc(-c3coc(C)n3)cc2)cc1	x	1.8
COc1ccc(C2CC(=O)NC(SCC(=O)OCc3ccccc3)=C2C#N)cc1 (configuration not stated)	0.01	1.4
N#C/C(=N\O)C(=O)c1ccco1	-1.1	x
O=C(CSCc1nc2cccnc2n1C1CCCCC1)N1CCN(c2ccc(F)cc2)CC1	x	-2.5
O=S(=O)(c1ccc(F)cc1)N1CCN(c2ccccc2)CC1	-3.2	x
COC(=O)CSc1nc(-c2ccc(OC)c(OC)c2)no1	0.19	1.1
COCCNc1nc2c(S(=O)(=O)c3ccc(C)c(C)c3)nnn2c2ccccc12	-0.13	-1.6
COc1ccc(-c2noc(-c3cccc4ccccc34)n2)cc1	-0.36	1.4
O=C(Nc1nonc1-c1ccc(Br)cc1)c1ccco1	-0.56	1.4
COc1ccc(-c2noc(CCn3c(=O)[nH]c4cc5c(cc4c3=O)OCO5)n2)cc1	x	-0.01
O=C(CC1=NS(=O)(=O)c2ccccc2N1)Nc1ccccc1F	x	1.3
COc1ccc2c(c1)c(NC(C)=O)c1n2CC(C)(C(=O)NC2CCCC2)N(CCC(C)C)C1=O (configuration not stated)	x	-0.19
Cc1ccc(-c2nc(CSc3nncn4c3cc3sccc34)c(C)o2)cc1	x	2.6
CCn1c2ccc(F)cc2c2nnc(SCCN3CCOCC3)nc21	-3.3	2.2
CCc1nn(CC(=O)N2CCC(C)CC2)c(=O)c2cc3sccc3n12	0.09	0.73
COc1ccc(CN2CCN(Cc3ccc(C(F)(F)F)cc3)CC2)c(OC)c1OC	2	x
Cc1nn(C(C)C(=O)NC(C)c2ccccc2)c(=O)c2cc3sccc3n12 (configuration not stated)	-1.7	2.1
CC(C)(C)NC(=O)Cn1nc(-c2ccncc2)ccc1=O	x	-0.27
N#Cc1cc(F)cc(F)c1NC(=O)c1cccs1	1.5	x

Some of these compounds in order of count of non-hydrogen atoms, low to high:
SMILES	CDC25B-CDK2 inh	HIV TAR-Tat
CC(C)(C)NC(=O)Cn1nc(-c2ccncc2)ccc1=O	x	-0.27
O=C(CC1=NS(=O)(=O)c2ccccc2N1)Nc1ccccc1F	x	1.3
COc1ccc(-c2noc(CCn3c(=O)[nH]c4cc5c(cc4c3=O)OCO5)n2)cc1	x	-0.01

(continued)
SMILES	CDC25B-CDK2 inh	HIV TAR-Tat
COc1ccc(-n2cc(-c3ccc(Cl)cc3)[nH]c2=S)cc1	-5.4	x
CCOC(=O)C(=CNNC(=O)c1cnn(-c2ccc([N+](=O)[O-])cc2)c1C(F)(F)F)C(=O)OCC	-1.9	x
C=CCC(O)(CCN1CCCCC1)c1ccccc1 (configuration not stated)	-1.5	0.35
CCc1nn(CCCC(=O)NCc2cccs2)c(=O)c2cc3occc3n12	-2.8	1.4
CC(C)c1ccc(Nc2c(Nc3ccc(C(C)C)cc3)c(=O)c2=O)cc1	0.94	x
O=C(CN1C(=O)COc2ccc(S(=O)(=O)N3CCCCCC3)cc21)N1CCCC1	-0.61	x
O=C(CCCn1c(=O)c2cccn2c2cccnc21)NCCN1CCOCC1	x	0.39
COc1ccc(-c2cnc(NCc3cc(Br)ccc3F)n2C)cc1	-0.28	-1.5
Cc1oc2cc(OC(C)C(=O)O)ccc2c(=O)c1-c1ccc(Br)cc1 (configuration not stated)	-1.6	1.5
CCN[C@H]1CN(CCCOC)S(=O)(=O)c2sc(S(N)(=O)=O)cc21	-1.3	x

In the list so far, these have an NH in an aromatic ring.
SMILES	CDC25B-CDK2 inh	HIV TAR-Tat
COc1ccc(-c2noc(CCn3c(=O)[nH]c4cc5c(cc4c3=O)OCO5)n2)cc1	x	-0.01
COc1ccc(-n2cc(-c3ccc(Cl)cc3)[nH]c2=S)cc1	-5.4	x

The list continues.
SMILES	CDC25B-CDK2 inh	HIV TAR-Tat
CCOC(=O)C1CCCN(S(=O)(=O)c2ccc3c(c2)C(C)(C)C(=O)N3)C1 (configuration not stated)	x	-1.4
CC(=O)N1CCC2(CC1)OC(=O)C(C)=C2C(=O)NC(C)C	x	1.4
O=C(CN1C(=O)c2cccnc2Oc2ccccc21)Nc1ccccc1Br	x	0.71
Cc1cc(C)cc(N2C(=O)N(Cc3ccccc3Cl)C3CS(=O)(=O)CC32)c1 (configuration not stated)	x	-0.18
CC1CCC(C(=O)Nc2cc3c(cc2N2CCCC2)n(C)c(=O)n3C)CC1 (configuration not stated)	x	1.3
CCC(CC)C(=O)Nc1c(C)nc2ccc(Cl)cn2c1=O	x	1.7
CCCCN(CC)C(=O)c1nn(C)c2c1COc1ccccc1-2	-1.2	1.8
O=C(Nc1ccc(F)cc1)Nc1c[nH]c(=O)[nH]c1=O	x	2.2
COCCCNc1nc2c(S(=O)(=O)c3c(C)cc(C)cc3C)nnn2c2ccccc12	-2.1	-1.7
CCOC(=O)C1=Cc2sc3c(c2CS1)CCCC3	x	-1.6
O=C1C(=O)N(CCN2CCOCC2)C(c2cccnc2)/C1=C(\O)c1ccccc1 (configuration not stated)	-0.64	1.1
CN(C)/C=C/C=C/C=C/C(=O)c1ccc(Br)cc1	-0.9	x
CCN1CCCC1CNS(=O)(=O)c1cc(Br)cc2c1N(C(=O)C1CC1)CC2 (configuration not stated)	-0.38	x
Cc1ccc2cc3c(nc2c1)N(S(=O)(=O)c1ccc(F)cc1C)CC3	-0.59	-0.05
CCOc1ccc(C2c3c(oc4cc(C)c(C)cc4c3=O)C(=O)N2CCOC)cc1OC (configuration not stated)	-1.1	0.29
Cc1cc(C)n2nc(CNS(=O)(=O)c3ccc(C(C)(C)C)cc3)nc2n1	-2.8	0.6
Fc1ccc(-c2noc3ncnc(NC4CCCC4)c23)cc1	x	1.4
CCc1nnc(SCC(=O)Nc2c(C)cc(C)cc2C)c2cc3occc3n12	x	3.7
COC(=O)c1cc(COc2ccc3c4c(c(=O)oc3c2)CCC4)c(C)o1	2.2	x
CCCc1cc(=O)n2c(nc3ccccc32)[nH]1	-1.6	-1

Whole records, quoted from the list. Order of values: CDC25B-CDK2 inh	HIV TAR-Tat
COC(=O)c1cc(COc2ccc3c4c(c(=O)oc3c2)CCC4)c(C)o1 is entered as 2.2	x
O=C1C(=O)N(CCN2CCOCC2)C(c2cccnc2)/C1=C(\O)c1ccccc1 (configuration not stated) is entered as -0.64	1.1
CN(C)/C=C/C=C/C=C/C(=O)c1ccc(Br)cc1 is entered as -0.9	x

(further entries)
SMILES	CDC25B-CDK2 inh	HIV TAR-Tat
COc1ccc(NC(=O)CN2N=NC3C(=O)N(c4ccc(F)c(F)c4)C(=O)C32)cc1 (configuration not stated)	x	0.11
O=C(Nc1ccc(-c2nc3cc(NC(=O)c4cccs4)ccc3o2)cc1)c1cccs1	x	1.9
O=c1/c(=C/c2cccs2)sc2nnc(-c3ccc(Cl)cc3)n12	-0.18	x
CCCc1c(C(=O)OCC)nnc2c(-c3ccc(Cl)cc3)c(C)nn12	-1.1	2.1
Cc1cc(C)cc(NC(=O)CSCc2cc(=O)n3nc(C4CCCCC4)sc3n2)c1	x	0.49
COc1ccc(C2c3c(oc4ccc(C)cc4c3=O)C(=O)N2c2nc(C)c(C)s2)cc1OC (configuration not stated)	0.56	-0.51
Cn1c(=O)c2sccc2n2c(CCC(=O)NCc3ccc4c(c3)OCO4)nnc12	-0.88	0.88
CC(C)NC(=O)O/N=C(\C#N)S(=O)(=O)c1ccc(Cl)cc1	1.1	x
COc1ccc(Cn2nnc3c(=O)[nH]c(C4CCCN(S(=O)(=O)c5ccccc5)C4)nc32)cc1 (configuration not stated)	-3.7	3.2
Cc1nn(CC(=O)NCCCN2CCCCC2)c(=O)c2cccn12	-2.6	2.7
Cc1cccc(-c2nc3scc(CCNS(=O)(=O)c4ccc(F)c(C)c4)n3n2)c1	x	-0.69
O=C(Nc1sc2c(c1C(=O)NCC1CCCO1)CCCC2)c1cc(=O)c2ccccc2o1 (configuration not stated)	-0.91	-1.8
CCOc1ccc(NC(=O)CCC(=O)OCC(=O)c2ccc(C)c([N+](=O)[O-])c2)cc1	-0.46	x
CN(Cc1ccco1)C(=O)C(=O)Nc1ccc2nc3n(c(=O)c2c1)CCCCC3	-2.1	x
Cc1ccc(-c2cn3c4ccccc4nc3n2CCCO)cc1	-1.1	-0.2
Cc1ccc(-c2noc(CN(C)S(=O)(=O)c3ccc(F)cc3)n2)cc1	-0.87	0.96
CCc1ccccc1CSc1n[nH]c(=O)n1Cc1ccco1	-0.95	x
Cn1cnc(-c2ccccc2NC(=O)Nc2cccc(Cl)c2)n1	-0.35	x
CC1(C)Cc2nc3[nH]c(=S)[nH]c(=O)c3cc2CO1	-2.6	x
O=C(CN1N=NC2C(=O)N(c3ccc(F)cc3)C(=O)C21)Nc1ccc(F)c(Cl)c1 (configuration not stated)	x	-1.1
Cc1ccc2nc(CSc3nnc(NC(=O)c4ccc(F)cc4)s3)cc(=O)n2c1	x	-0.4
Cc1cc(=O)n2c(n1)NC(Nc1cccc(C)c1C)=NC2c1ccc(F)cc1 (configuration not stated)	-0.12	-2.2
Cc1nc(-c2ccc(S(=O)(=O)N3CCN(C(c4ccccc4)c4ccccc4)CC3)cc2)co1	x	-0.72
Cc1cc2nc3c(nc2cc1C)CCCC3	-1.9	x
O=C(NCC1CCCO1)c1nnsc1NC(=O)N1CCOCC1 (configuration not stated)	x	-0.05
CCOc1cc(CNc2ccc(O)cc2)cc(Br)c1OCc1cccs1	-0.71	-6.5
CCCSc1nc2c(c(=O)[nH]1)C(c1ccc(F)cc1)C(C(=O)OC(C)C)=C(C)N2 (configuration not stated)	-0.29	0.93
C[N+]1=C2CCCCC2(C)c2ccccc21 (configuration not stated)	-1.7	x
CCc1cccc(-n2nnc(-c3nc(-c4ccccc4C)no3)c2C)c1	x	1.2
CCOc1ccc(Nc2c3c(nc4ncnn24)CCCC3)cc1	x	1.3
COc1ccc(-c2cc(N)n(S(=O)(=O)c3ccc(F)cc3)n2)c(OC)c1	-0.5	0.38
CCCCn1c(O)c(C#N)c(C)c(N=Nc2ccc(C#N)cc2)c1=O	-1.7	x
N#C/C(=C\N1CCC(n2cccc2)CC1)S(=O)(=O)c1ccccn1	-1.5	x
COCCCNc1nc2c(S(=O)(=O)c3ccc(C)cc3)nnn2c2ccccc12	-0.49	-0.29
CCc1ccc(-c2nc(C(N)=O)c3[nH]c(=O)n(-c4ccc(F)cc4)c3n2)cc1	x	0.87
CCOC(=O)c1c(C)[nH]c(C)c1S(=O)(=O)N(CCc1ccncc1)CC1CCCO1 (configuration not stated)	x	0.51
O=C(Nc1cccc(Cl)c1)C1CC2CSCN2C12C(=O)Nc1ccccc12 (configuration not stated)	x	-0.68
Clc1ccc2c(c1)CN(Cc1ccccc1)CO2	1.3	0.95
COc1ccc(Cl)cc1C(=O)Nc1nnc2n1CCS2	x	-0.22
CC(C)(C)c1nc(N)nc(NNS(=O)(=O)c2ccccc2C(F)(F)F)n1	-2.1	x
Cn1c(=O)c2c(ncn2Cc2cccc(Cl)c2)n(C)c1=O	-0.93	0.41
CCc1ccc(N2C(=O)N(c3ccccc3C)C3CS(=O)(=O)CC32)cc1 (configuration not stated)	-1.1	0.01
CCCCc1nn2c(=O)cc(CSCC(=O)Nc3nnc(CC)s3)nc2s1	x	-0.93
CC1=C(c2ccc(F)cc2)S(=O)(=O)NC1=NC(C)C	x	-2.5
COC(=O)c1ccc(-c2cccs2)nc1C	-3	x
CCOc1cccc2c1OC1(CCC(C)CC1)N1N=C(c3ccc(C)o3)CC21 (configuration not stated)	0.67	x
O=C1CC(NCCc2c[nH]c3ccccc23)C(=O)N1CCc1ccccc1 (configuration not stated)	-2	0.92
COc1ccc(S(=O)(=O)Nc2ccc(C#N)cc2)cc1OC	-0.96	x
COC(=O)c1ccc2c(=O)n(Cc3ccc4c(c3)OCO4)c(SCC(=O)c3ccccc3)nc2c1	x	0.78
O=C1c2c(O)cccc2Cc2cccc(O)c21	x	25*
The list continues.
SMILES	CDC25B-CDK2 inh	HIV TAR-Tat
O=C(Nc1ccc2oc(-c3ccccc3Cl)nc2c1)c1sc2ccccc2c1Cl	-3.7	x
CN(C)/C=C/C(=O)c1cc(OCC(F)(F)F)ccc1OCC(F)(F)F	-2	x
CC(C)Cn1c(CN2CCOCC2)nc2ccccc21	0.41	1.6
COc1ccc(Cc2nnc3c4cnn(-c5ccccc5)c4ncn23)cc1	0.81	1
Cc1nn(CCCC(=O)N2CCCCC2)c(=O)c2cc3occc3n12	-2.6	-0.33
COc1ccc(S(=O)(=O)N2CCN(c3ccc(Cl)cc3)CC2)cc1OC	-0.39	x
Cn1nc(C(=O)N2CCC(C(N)=O)CC2)c2c1-c1ccccc1OC2	-1.3	0.59
Cn1c(=O)n(C)c2cc(NC(=O)Cc3cccs3)ccc21	x	-0.53
Cc1ccc(C(C)C)c(OCCn2c(=O)oc3ccccc32)c1	-1.3	1.8
CCOC(=O)C1CCN(C(C(=O)NC2CCCCC2)c2ccc(Cl)cc2)CC1 (configuration not stated)	-1.1	x
O=C1c2cccnc2C(=O)N1Cc1ccc(S(=O)(=O)NCc2cccnc2)s1	x	-0.18
O=C(NCC1CCCO1)c1cc(CN2CCOCC2)on1 (configuration not stated)	x	1.1
CCCCOc1nc(C)nc2c1sc1nc3c(cc12)COC(C)(C)C3	-2.5	x
CSc1cccc(NS(=O)(=O)c2ccc3c(c2)NC(=O)C(C)C(=O)N3)c1 (configuration not stated)	-1.7	0.72
CSc1ccccc1NC(=O)c1nn2c(c1Cl)NC(c1ccco1)CC2C(F)(F)F (configuration not stated)	0.86	1.6
S=C(c1ccccc1)N1CCOCC1	0.22	x
COC(=O)c1sc2ccccc2c1S(=O)(=O)N1CCC(C(N)=O)(N2CCCCC2)CC1	x	-2.1
Cc1ccc(C(=O)CC2(O)C(=O)N(Cc3ccccc3)c3ccc(Br)cc32)s1 (configuration not stated)	-1.9	-0.29
O=C(Oc1ccc2c(=O)c(-c3ccccc3)coc2c1)N1CCOCC1	-1.4	0.78
S=c1[nH]nc(-c2cccnc2)n1C1CCCCC1	-0.29	x
O=C(NC1CCCCC1)c1ccc(CNc2c(N3CCCC3)c(=O)c2=O)cc1	0.19	2.7
